# Screening results deposited in PubChem BioAssay by several laboratories.
# Hsc70 ATP site – Hsc70 inhibitors, probe displacement, primary screen, biochemical, fluorescence polarization (AID 568); Heat shock cognate 71 kDa protein (Homo sapiens); Hsc70 fluorescence polarization, probe displacement; higher % means a stronger effect; strong numbers were not always called active; one-dose displacement, % at 20 µM; IC50 in µM for titrated hits; 83,000 tested, under 10 active;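 active = displacement above 50% without optical interference and an IC50 on retest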;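 note: ATPase domain with a fluorescein-tagged ATP probe; 0% = vehicle and 100% = excess ADP; read after one hour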
# WNV NS2B-NS3 inh – inhibitors of WNV NS2B-NS3 protease, primary screen, biochemical, fluorogenic substrate. Genome polyprotein (West Nile virus), P06935. fluorogenic substrate Ex360/Em465; stronger effect = lower value. z-score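 (tested at a level between 10 and 100 µM)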. actives 0.18% (n = 65,000);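 active = z-score at -3 or under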;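 note: score is relative to mean and spread of the compound wells of a plate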
# Target sequence (P06935 1371-1501 limits assumed): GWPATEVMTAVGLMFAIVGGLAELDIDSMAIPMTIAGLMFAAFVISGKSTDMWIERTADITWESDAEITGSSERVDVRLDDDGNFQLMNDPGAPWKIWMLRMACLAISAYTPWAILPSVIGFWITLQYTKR
# Target sequence (P06935 1502-1679 limits assumed): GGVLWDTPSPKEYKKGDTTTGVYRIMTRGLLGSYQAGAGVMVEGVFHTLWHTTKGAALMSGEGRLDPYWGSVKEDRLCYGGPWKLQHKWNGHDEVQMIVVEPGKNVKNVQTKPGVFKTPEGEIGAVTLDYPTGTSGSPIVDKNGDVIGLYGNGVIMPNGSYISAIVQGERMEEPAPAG
# MT1-MMP promoter – inhibitors of MT1-MMP promoter transcription, cell-based, luciferase reporter, luminescence (AID 618). actives 0.62% (n = 87,000). MT1-MMP promoter luciferase reporter cells, luminescence. calls from a first round at 10 µM; hits with a dose series show EC50 in µM;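 active = over half of the reporter light lost at 10 µM or EC50 under 50 µM; inactive = the rest and hits that failed the dose series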;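 note: actives suppress MT1-MMP promoter-driven transcription so potencies describe inhibitors; HT1080 fibrosarcoma cells; overnight exposure; toxic or luciferase-blocking compounds were not removed from the actives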
# Numbers without * were called inactive; i = inactive; . = no result given. An excerpt. The share of hits here may be higher or lower than overall.
# Each structure is followed by: Hsc70 ATP site	WNV NS2B-NS3 inh	MT1-MMP promoter
Clc1ccc(Br)cc1-c1nc(-c2ccncc2)no1
 : -9.3%	-0.75	i
CCC1(C)Cc2ccccc2/C(=C/C(=O)N2CCCCC2)N1 (stereo not given)
 : 6.2%	-0.54	i
CC1(C)Cc2c(sc3ncn4nnnc4c23)CO1
 : 0.0%	0.53	i
Cc1cc(C)n(-c2nncn2NC(=O)c2ccc(Cl)cc2O)n1
 : -3.9%	-0.29	i
Cc1ccc(Nc2c3c(nc4ncnn24)CC(C)CC3)cc1 (stereo not given)
 : -0.5%	.	i
CS(=O)(=O)N1CCC(C(=O)NCCN2CCN(Cc3ccccc3)CC2)CC1
 : -2.0%	0.89	i
O=C(OCc1cccc2ccccc12)c1ccc2c(=O)[nH]c(CN3CCOCC3)nc2c1
 : 2.8%	-1.6	i
COc1ccc(CC(=O)Nc2ccc3c(c2)CCC3)cc1S(=O)(=O)N1CCOCC1
 : 8.5%	0.4	i
Nc1nonc1C(=O)OCC(=O)N1CCCCC1
 : 5.9%	-0.88	i
Fc1ccc(CSc2nc3ccccc3[nH]2)cc1
 : 3.6%	.	i
CCn1c(Cn2nnc(-c3ccccc3)n2)nnc1SCC(=O)Nc1cccc(C)c1C
 : 3.7%	-0.95	i
Cc1ccc(C(=O)OCC(=O)N2CC(=O)Nc3ccccc32)s1
 : 8.8%	-2.2	i
COC(=O)c1ccc2c(=O)n(C3CCCCC3)c(SCC#N)nc2c1
 : -4.9%	-0.87	i
COC(=O)C(NC(C)=O)(Nc1sc2c(c1C(N)=O)CCCC2)C(F)(F)F (stereo not given)
 : -1.1%	.	i
CCC(C)[C@@H](C(=O)Nc1ccc2c(c1)OCO2)N1Cc2ccccc2C1=O (stereo not given in full)
 : 6.1%	-0.9	i
CCCCNC(=O)CN(CCc1ccccc1)S(C)(=O)=O
 : 2.2%	.	i
CCCN(CCC)CCCNC(=O)c1ccc2c(c1)N(CC)C(=O)c1ccccc1S2=O (stereo not given)
 : 2.0%	0.64	i
Cc1cccc(C)c1N1CCN(S(=O)(=O)N2CCOCC2)CC1
 : -1.6%	.	i
CCCCN(Cc1cc2cc(OC)ccc2[nH]c1=O)C(=O)c1ccco1
 : -0.1%	.	i
CC1CC(Nc2ccccc2)c2ccccc2N1C(=O)c1cccnc1 (stereo not given)
 : 4.2%	.	i
Cc1ccc(C)c(CSc2nnc(-c3ccccn3)n2N)c1
 : 0.5%	-1.6	i
OC1(c2ccc(F)cc2)CCN(Cc2nnnn2Cc2cccs2)CC1
 : -4.2%	-1.1	i
COc1cccc(-n2c(SCC(=O)NCCC3=CCCCC3)nc3n[nH]c(C)c3c2=N)c1
 : -3.0%	-0.99	i
CCOC1CCCCC1NS(=O)(=O)c1ccc(Cl)cc1 (stereo not given)
 : 4.8%	-0.25	i
CN(c1ccccc1C(=O)Nc1cccnc1)S(C)(=O)=O
 : -10%	0.97	i
C=CCSc1nc(C)c2cc(C)cc(C)c2n1
 : -1.3%	.	i
O=C(CSc1nc2ccccc2c(=O)n1NC(=O)Cc1ccccc1)NCc1ccco1
 : -8.4%	-0.66	i
CCOC(=O)CNc1c(-c2ccc(Cl)cc2)nc2cnccn12
 : 15%	0.17	i
O=C(CCCN1C(=O)c2ccccc2C1=O)Nc1ccccc1C(=O)N1CCOCC1
 : 1.0%	0.17	i
CCOCCc1nnc(NC(=O)c2cccc(F)c2)s1
 : -4.2%	-0.86	i
Cc1ccc(-c2cc(-c3ccc4c(c3)OCO4)c(C#N)c(N)n2)o1
 : -1.9%	-0.26	i
Cn1c(SCC(=O)NCc2ccc3c(c2)OCO3)nnc1C1COc2ccccc2O1 (stereo not given)
 : -6.0%	-0.86	i
O=C(Nc1cccc(NC(=O)c2ccc(-c3cccc(Br)c3)o2)c1)c1ccco1
 : -19%	-0.2	i
Cc1cc(Nc2cccc(F)c2)n2nc(C)nc2n1
 : -3.1%	-1	i
CCOC(=O)N1CCN(c2cc(=O)n(-c3cccc(Br)c3)c(=O)[nH]2)CC1
 : 3.4%	0.07	i
COc1cc(CCC(=O)OCC(=O)Nc2ncc(Cl)cc2Cl)cc(OC)c1OC
 : -5.7%	2	i
Cc1cc(C)nc(NS(=O)(=O)c2ccc(NC(=O)c3ccco3)cc2)n1
 : -2.8%	-0.6	i
CC1CN(C(=O)c2cccc(C(=O)N3CC(C)OC(C)C3)c2)CC(C)O1 (stereo not given)
 : 5.7%	0.88	i
CCCCN(CCCC)CCNC(=O)Cc1nc2c(c(=O)[nH]c(=O)n2C)n1C
 : 5.8%	1.2	i
CCn1c2ccccc2c2nnc(SCC(=O)Nc3cc(C)on3)nc21
 : 5.3%	0.5	i
COc1cc(OC)cc(C(=O)NCCNC(=O)c2ccco2)c1
 : -1.4%	.	i
CCc1c(C)[nH]c2ccc(C)cc2c1=O
 : 4.9%	0.91	i
CCOc1ccc(C(=O)CCNC(Cc2cnc[nH]2)C(=O)O)cc1 (stereo not given)
 : -4.4%	1.6	i
COc1ccc(-n2nnnc2SCC(=O)c2ccc3c(c2)OCCO3)cc1
 : 4.7%	.	i
C=CCNCC#CCOc1ccc(OC)cc1
 : -0.7%	.	i
CCN(C(=O)CSc1nnc(-c2ccncc2)n1C)C1CCS(=O)(=O)C1 (stereo not given)
 : -3.2%	.	i
Cc1nc(N(C)Cc2ccccc2)c2nnn(Cc3ccccc3)c2n1
 : 1.3%	.	i
Cc1ccc(NC(=O)CCn2cccc2)cc1
 : 3.2%	.	i
CC(C)Cn1c(N)c(C(=O)COC(=O)CC23CC4CC(CC(C4)C2)C3)c(=O)n(C)c1=O
 : 0.7%	.	i
Cc1ccccc1CCNC(=O)C1CCN(S(=O)(=O)c2ccc(-n3cnnn3)cc2)CC1
 : -2.2%	-0.66	i

# The results go on.
# Each structure is followed by: Hsc70 ATP site	WNV NS2B-NS3 inh	MT1-MMP promoter
CSc1nsc(SCC(=O)Nc2c(C)n(C)n(-c3ccccc3)c2=O)n1
 : -2.1%	0.75	i
CCOc1ccc(NC(=O)C2CCN(S(=O)(=O)c3c(C)n[nH]c3C)CC2)cc1
 : 2.3%	-0.9	i
CCOC(=O)C(Cc1c(F)cccc1F)(NC(C)=O)C(=O)OCC
 : -4.4%	1.6	i
O=C(c1ccccc1)c1ccc(Oc2ncccn2)cc1
 : 3.7%	0.92	i
Cc1cc(C)c2cc(CN(Cc3cccs3)Cc3nnnn3CC3CCCO3)c(=O)[nH]c2c1 (stereo not given)
 : -10%	-0.91	i
Cc1ccc(NC(=O)CSc2nnc(CNC(=O)c3c(F)cccc3Cl)o2)cc1
 : -3.8%	0.63	i
Cc1ccccc1CNC(=O)c1ccccc1C
 : -1.6%	.	i
Cn1c(Cn2cnc3ccccc32)nnc1SCc1ccccc1
 : 5.0%	1.2	i
O=C(c1cc2ccccc2oc1=O)N1CCN(c2ccc(N3CCOCC3)nn2)CC1
 : 7.1%	-4*	i
CC(C)CC(=O)Nc1cccc2c1C(=O)N(c1ccccc1)C2=O
 : 2.0%	.	i
COc1ccc(C)cc1S(=O)(=O)N(C)CC(=O)Nc1ccccc1
 : 7.1%	-0.86	i
Cc1csc(NC(=O)CSc2nnc(Cc3cccn3C)n2CCc2ccccc2)n1
 : -1.9%	-0.89	i
COc1ccc([C@@H]2[C@H]3CN(C(C)=O)CC=C3C(C#N)=C(N)C2(C#N)C#N)c2ccccc12
 : 3.6%	-1.3	i
CCCOC(=O)c1ccc(OCC(O)CN2CCN(C(=O)c3ccccc3)CC2)cc1 (stereo not given)
 : -5.0%	0.09	i
O=c1c2ccccc2sn1-c1ccc(S(=O)(=O)N2CCCCC2)cc1
 : 3.0%	0.85	i
CCOc1ccc(CNc2ncnc(N)n2)cc1
 : -1.8%	.	i
O=C(NC1CCCc2ccccc21)C1CCC(CNc2c(N3CCOCC3)c(=O)c2=O)CC1 (stereo not given)
 : 9.2%	-0.2	i
O=C(O)CSCc1nc2ccccc2s1
 : 2.0%	-2.4	i
Cc1nnc(Sc2c(N)n(C)c(=O)n(C)c2=O)s1
 : -3.7%	.	i
Cc1cccc(-c2cc3nc(-c4ccccc4)cc(N4CCC5(CC4)OCCO5)n3n2)c1
 : -0.2%	.	i
O=C(OCC(=O)N1CCN(C(=O)c2ccco2)CC1)c1sc2cc(F)ccc2c1Cl
 : -11%	0.84	i
CC(=O)N1CCN(c2ccc(Nc3nc(C)nc4c3oc3ccccc34)cc2)CC1
 : -2.0%	-1.1	i
CCOC(=O)c1cc2c(=O)n3cccc(C)c3nc2n(CCCOC)c1=NC(=O)c1cccnc1
 : -1.0%	-0.46	i
CC(C)c1ccc(S(=O)(=O)c2n[nH]n3c2nc(=O)c2ccccc23)cc1
 : -6.9%	0.15	i
CCCCCOc1ccc(N2C(=O)C3C4C=CC(C3C2=O)N(C)C4=O)cc1 (stereo not given)
 : -3.2%	.	i
CCOC(=O)c1c(-c2ccccc2)oc2ccc(OC)cc12
 : 2.6%	.	i
Cc1c(CCC(=O)O)c(=O)n2c([nH]c3ccccc32)c1C#N
 : 3.6%	.	i
COc1cc(NS(=O)(=O)c2ccc(F)cc2)c(C(=O)O)cc1OC
 : 1.4%	-0.73	i
O=C1N=C(N2CCCCC2)SC1=C1CCCC1
 : -1.4%	1.4	i
Cc1cc(NS(=O)(=O)c2ccc(CC(C)C)cc2)no1
 : 1.1%	.	i
CCCCCCc1ccc(OCC(=O)O)cc1OCC(=O)O
 : -6.6%	-0.08	i
COc1ccc(S(=O)(=O)N(C)CC(=O)Nc2ccc3c(c2)OCO3)cc1OC
 : -5.6%	0.05	i
O=C(NCCN1CCCCC1)/C(=N\O)c1ccccc1
 : -2.2%	0.15	i
COc1ccc(CCNC(=O)c2nn(C)cc2Cl)cc1
 : -0.3%	-0.87	i
CCOC(=O)NC(=O)/C(C#N)=N/Nc1c(F)cccc1F
 : 4.4%	.	i
O=C(CSc1nnc(-c2cccnc2)n1Cc1ccco1)c1ccc(Cl)cc1
 : -2.7%	-0.46	i
O=C(NCCCN1CCCC1)c1ccc(CSCc2cccc(Cl)c2)o1
 : 1.1%	.	i
Cc1cnc(C(=O)Nc2ccc(N3CCOCC3)cc2)cn1
 : -0.7%	-0.55	i
Cc1nn(Cc2ccccc2)c(N)c1C#N
 : -1.9%	-0.82	i
CCc1ccc(N2CC34C=CC(O3)C(C(=O)OC)C4C2=O)cc1 (stereo not given)
 : -2.9%	-0.14	i
O=C(c1ccco1)N1CCN(C(=O)C(Sc2ccccc2)c2ccccc2)CC1 (stereo not given)
 : -6.1%	-0.42	i
C/C(N)=C(/C#N)C(=O)CSc1nnc(Nc2ccccc2C)s1
 : 1.5%	.	i
CC1CCCC(C)N1c1nnc(N)s1 (stereo not given)
 : -1.0%	2.9	i
CC(=O)Oc1cc2c(cc1Cl)C1(CC(c3ccccc3Cl)O2)CC(C)(C)NC(=S)N1 (stereo not given)
 : -2.8%	.	i
N#C/C(=C(/O)COC(=O)Cc1c[nH]c2ccccc12)c1nc2ccccc2[nH]1
 : -16%	0.39	i
COC(=O)c1cc(C)sc1NC(=O)c1cccnc1
 : -3.9%	-1.2	i
CCCCn1c(-c2cc(Cl)ccc2OC)n[nH]c1=S
 : 1.4%	1.3	i
CC(C)NC(=O)NC(=O)COc1ncnc2sccc12
 : -7.3%	-0.02	i
Fc1ccc2nc(N3CCCCC3)sc2c1
 : 1.0%	0.38	i
COc1ccc(CNC(=O)COc2ccc(S(=O)(=O)NC(C)C)cc2)cc1
 : 4.9%	1.3	i

# Three neighbouring entries already listed, for reference:
# Each structure is followed by: Hsc70 ATP site	WNV NS2B-NS3 inh	MT1-MMP promoter
O=C(c1ccco1)N1CCN(C(=O)C(Sc2ccccc2)c2ccccc2)CC1 (stereo not given)
 : -6.1%	-0.42	i
C/C(N)=C(/C#N)C(=O)CSc1nnc(Nc2ccccc2C)s1
 : 1.5%	.	i
CC1CCCC(C)N1c1nnc(N)s1 (stereo not given)
 : -1.0%	2.9	i

# Full records, quoted from the list. Order of screens: Hsc70 ATP site	WNV NS2B-NS3 inh	MT1-MMP promoter
# Profile of Cn1c(SCC(=O)NCc2ccc3c(c2)OCO3)nnc1C1COc2ccccc2O1 (stereo not given) : -6.0%	-0.86	i
# Profile of Cc1ccc(Nc2c3c(nc4ncnn24)CC(C)CC3)cc1 (stereo not given) : -0.5%	.	i

# (listing goes on)
# Each structure is followed by: Hsc70 ATP site	WNV NS2B-NS3 inh	MT1-MMP promoter
CCCCC(=O)Nc1ccc(C(=O)NCCCn2ccnc2)cc1
 : -2.2%	0.24	i
Cc1ccc(S(=O)(=O)Nc2ccc(NC(=O)CN3CCCCC3)cc2)cc1
 : 4.8%	-1.1	i
COc1ccc(NC(=O)Nc2ccc(C(=O)N3CCOCC3)cc2)cc1
 : -1.6%	-0.0029	i
COc1cc(CNn2cnnc2)ccc1OCC(=O)NC(C)(C)C
 : 4.1%	.	i
COc1ccc(C)cc1N(C(=O)CNC(=O)c1ccco1)C(C(=O)NC1CCCC1)c1cccnc1 (stereo not given)
 : -0.6%	1.2	i
CCOC(=O)c1ccccc1NC(=O)c1cccc(F)c1
 : -0.2%	.	i
Cc1cc(C(=O)Nc2cccc(O)c2)c(C)o1
 : -1.3%	0.68	i
O=C(O)C1CCCN(C(=O)NCc2ccccc2)C1 (stereo not given)
 : -2.0%	0.54	i
CC(C(=O)Nc1nc2ccccc2[nH]1)N1C(=O)C2CC=CCC2C1=O (stereo not given)
 : 4.7%	1.1	i
Cc1cccc(Nc2nc(-c3ccc4c(c3)OCCO4)cs2)c1
 : -4.1%	.	i
